Compound activity from PubChem BioAssay.
KCNQ2 inh – KCNQ2 channel blockers in CHO-K1 cells – cell-based, FluxOR thallium flux, B-score, primary screen (AID 2156). 20 min; hits give low values; only compounds with negative scores are shown here; some inactives read as strong as hits. B-score at 10 µM. 310,000 compounds, 1.1% hits. O88943;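 active = fluorescence ratio B-score at most minus 3 library SDs, with starting brightness B-score within 2 library SDs, cut at about -5.5 in these data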
Target sequence (O88943 whole entry, looked up): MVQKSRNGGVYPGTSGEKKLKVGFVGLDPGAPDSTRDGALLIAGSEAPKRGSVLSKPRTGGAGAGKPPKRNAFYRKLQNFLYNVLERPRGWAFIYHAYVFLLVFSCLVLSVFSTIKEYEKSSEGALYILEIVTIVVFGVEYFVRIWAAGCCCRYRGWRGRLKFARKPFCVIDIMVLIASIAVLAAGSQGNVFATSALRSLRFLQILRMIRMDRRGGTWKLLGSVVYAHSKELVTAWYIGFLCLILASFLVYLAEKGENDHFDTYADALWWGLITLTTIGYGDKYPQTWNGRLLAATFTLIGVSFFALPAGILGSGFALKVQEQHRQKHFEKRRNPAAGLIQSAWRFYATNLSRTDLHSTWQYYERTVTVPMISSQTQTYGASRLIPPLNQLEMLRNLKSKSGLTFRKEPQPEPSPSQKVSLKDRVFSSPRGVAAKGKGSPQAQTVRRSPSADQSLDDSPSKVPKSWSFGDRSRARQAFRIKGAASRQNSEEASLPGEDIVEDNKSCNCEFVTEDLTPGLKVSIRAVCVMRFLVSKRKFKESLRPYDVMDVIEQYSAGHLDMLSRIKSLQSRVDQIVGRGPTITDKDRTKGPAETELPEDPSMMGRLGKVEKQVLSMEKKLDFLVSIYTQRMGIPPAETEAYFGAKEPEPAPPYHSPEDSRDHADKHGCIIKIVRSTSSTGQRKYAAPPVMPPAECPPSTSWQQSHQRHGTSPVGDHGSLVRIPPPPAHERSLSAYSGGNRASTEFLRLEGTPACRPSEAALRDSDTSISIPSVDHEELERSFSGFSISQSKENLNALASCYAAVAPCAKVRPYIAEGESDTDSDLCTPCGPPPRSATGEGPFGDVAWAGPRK
KCNQ2 inh baseline – recorded beside KCNQ2 inh, whose call it bears; B-score; measured here: initial fluorescence intensity artifact check;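 brightness before thallium and not channel activity; 0 = typical well and far values either way flag optical interference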
* hit, by the source's call.

`Cc1ccc(S(=O)(=O)CCC(=O)OCC(=O)Nc2ccc(N3CCOCC3)cc2)cc1` gave KCNQ2 inh inactive and KCNQ2 inh baseline 0.63.
CN(C)C(=O)c1ccc2c(c1)n(C)c(=O)n2C was read as KCNQ2 inh inactive and KCNQ2 inh baseline 1.
COc1ccc(-c2cnnc(N/N=C/c3ccc(O)c(OC)c3)n2)cc1 was read as KCNQ2 inh inactive and KCNQ2 inh baseline 0.69.
CC(C(=O)Nc1cccc(Br)c1)c1ccc([N+](=O)[O-])cc1 (stereo not given) was read as KCNQ2 inh inactive and KCNQ2 inh baseline -0.02.
For COc1ccccc1/C=C/C1=NC(=C\N(C)C)/C(=O)O1 the results were KCNQ2 inh inactive and KCNQ2 inh baseline 3.3.
For CCCS(=O)(=O)N1CCN=C1SCc1cccc2ccccc12 the results were KCNQ2 inh inactive and KCNQ2 inh baseline -0.01.
Cc1nnc2ccc(-c3ccc(NC(=O)c4ccco4)cc3)nn12 was read as KCNQ2 inh inactive and KCNQ2 inh baseline 2.9.
For CC(C)c1csc(CN2CCC(CO)(Cc3ccccc3)CC2)n1 the results were KCNQ2 inh inactive and KCNQ2 inh baseline -0.63.
Cc1ccccc1C(=O)Nc1ccc2c(c1)nc(CCNC(=O)c1ccco1)n2C was read as KCNQ2 inh inactive and KCNQ2 inh baseline 0.76.
For COC(=O)Cc1ccc(NC(=S)N2CCN(c3cc(Cl)ccc3C)CC2)cc1 the results were KCNQ2 inh inactive and KCNQ2 inh baseline 2.2.
For COc1cccc(OCC(O)CN(CCO)Cc2ccccc2)c1 (stereo not given) the results were KCNQ2 inh inactive and KCNQ2 inh baseline 0.13.
CC(=O)Nc1ccc(Nc2ncnc3c2cnn3-c2cccc(C)c2)cc1 was read as KCNQ2 inh inactive and KCNQ2 inh baseline 0.84.
`CCCN(C(=O)CSCC(=O)Nc1ccc(OC)cc1)c1c(N)n(Cc2ccccc2)c(=O)[nH]c1=O` gave KCNQ2 inh inactive and KCNQ2 inh baseline 0.31.
Screening CN(C(=O)C1CCCCC1)C1CCS(=O)(=O)C1 (stereo not given) returned KCNQ2 inh inactive and KCNQ2 inh baseline 1.
CCC(C)NC(=O)c1cccc(OCc2c(C)noc2C)c1 (stereo not given) was read as KCNQ2 inh inactive and KCNQ2 inh baseline -1.4.
CCN(c1cccc2ccccc12)S(=O)(=O)c1ccc(Cl)nc1 was read as KCNQ2 inh inactive and KCNQ2 inh baseline 0.18.
Screening CCOC(=O)c1sc(NC(=S)NC(=O)CC(C)C)cc1C returned KCNQ2 inh inactive and KCNQ2 inh baseline -0.64.
O=C(CC(SCCO)c1ccc([N+](=O)[O-])cc1)c1ccco1 (stereo not given) was read as KCNQ2 inh inactive and KCNQ2 inh baseline 1.1.
For NC(c1ccccc1)c1ccncc1 (stereo not given) the results were KCNQ2 inh inactive and KCNQ2 inh baseline -1.2.
For COc1ccc(Cn2nnnc2C(C(C)C)N(Cc2ccco2)Cc2cccs2)cc1 (stereo not given) the results were KCNQ2 inh inactive and KCNQ2 inh baseline -2.7.
Screening COc1ccc(/C=C/C(=O)NC(=S)NNC(=O)c2ccco2)cc1 returned KCNQ2 inh inactive and KCNQ2 inh baseline -0.71.
For O=C(CNS(=O)(=O)/C=C/c1ccccc1)OCC(=O)N1CCC(Cc2ccccc2)CC1 the results were KCNQ2 inh inactive and KCNQ2 inh baseline -0.01.
CCCn1c(SCC(=O)Nc2ccc(NC(=O)CC)cc2)nc2c1c(=O)n(C)c(=O)n2C was read as KCNQ2 inh inactive and KCNQ2 inh baseline -0.73.
CC(=O)Nc1ccc(Cc2ccncc2)cc1 was read as KCNQ2 inh inactive and KCNQ2 inh baseline 0.21.
`O=C1CC(SCCO)C(=O)N1c1ccccc1` (stereo not given) gave KCNQ2 inh inactive and KCNQ2 inh baseline 0.41.
`CC(C)C(=O)Nc1cccc(NC(=O)c2ccc(Cl)cc2Cl)c1` gave KCNQ2 inh inactive and KCNQ2 inh baseline 1.1.
Screening COc1ccc(C(=O)NC(=S)N2CCOCC2)cc1Br returned KCNQ2 inh inactive and KCNQ2 inh baseline 0.3.
O=C(/C=C/c1ccccc1Cl)Nc1ccc(Cl)cn1 was read as KCNQ2 inh inactive and KCNQ2 inh baseline 0.31.
O=S(=O)(NN=C1CCCCC1)c1ccccc1 was read as KCNQ2 inh inactive and KCNQ2 inh baseline 0.27.
Screening CCCCCOc1ccc(Cl)cc1CN1CCOCC1 returned KCNQ2 inh inactive and KCNQ2 inh baseline 1.2.

Arranged by SMILES length (ascending): 5 of the compounds above.
CC(=O)Nc1ccc(Cc2ccncc2)cc1 was read as KCNQ2 inh inactive and KCNQ2 inh baseline 0.21.
Screening CCCCCOc1ccc(Cl)cc1CN1CCOCC1 returned KCNQ2 inh inactive and KCNQ2 inh baseline 1.2.
Screening COc1ccc(C(=O)NC(=S)N2CCOCC2)cc1Br returned KCNQ2 inh inactive and KCNQ2 inh baseline 0.3.
`CC(C)C(=O)Nc1cccc(NC(=O)c2ccc(Cl)cc2Cl)c1` gave KCNQ2 inh inactive and KCNQ2 inh baseline 1.1.
For O=C(CNS(=O)(=O)/C=C/c1ccccc1)OCC(=O)N1CCC(Cc2ccccc2)CC1 the results were KCNQ2 inh inactive and KCNQ2 inh baseline -0.01.

Next entries.
For O=C(NCCc1ccccc1)c1n[nH]c(=O)c2ccccc12 the results were KCNQ2 inh inactive and KCNQ2 inh baseline -0.06.
For CCCCc1nnc(NC(=O)C23CC4CC(CC(NC(C)=O)(C4)C2)C3)s1 the results were KCNQ2 inh inactive and KCNQ2 inh baseline 0.49.
Screening Cc1cc(/C=C(\C#N)C(=O)NCc2ccco2)c(C)[nH]1 returned KCNQ2 inh inactive and KCNQ2 inh baseline 2.3.
For COc1cccc(/C=N/n2c(-c3cc(C)[nH]n3)n[nH]c2=S)c1 the results were KCNQ2 inh inactive and KCNQ2 inh baseline 1.9.
Screening CCCCN1C(=O)C2Cc3c([nH]c4ccccc34)CN2C1=S (stereo not given) returned KCNQ2 inh -5.6* and KCNQ2 inh baseline 1.6*.
For Clc1ccc2nc(N3CCNCC3)nc(-c3ccccc3)c2c1 the results were KCNQ2 inh -5.9* and KCNQ2 inh baseline -0.04*.
CC[C@H](C)C(=O)O[C@H]1CCC=C2C=C[C@H](C)[C@H](CC[C@@H]3C[C@@H](O)CC(=O)O3)[C@H]21 was read as KCNQ2 inh inactive and KCNQ2 inh baseline 0.07.
`CC1(C)Cc2cccc(Oc3ccc(S(=O)(=O)N4CCCCC4)cn3)c2O1` gave KCNQ2 inh inactive and KCNQ2 inh baseline -0.52.
`CC(CCc1ccccc1)NC(=O)c1ccccc1Cl` (stereo not given) gave KCNQ2 inh inactive and KCNQ2 inh baseline 0.15.
For NC(=O)c1ccc[n+](CC(=O)c2ccc(F)cc2)c1 the results were KCNQ2 inh inactive and KCNQ2 inh baseline -0.2.
`O=C1C2CCCN2C(c2ccccc2F)N1c1cccc(Cl)c1` (stereo not given) gave KCNQ2 inh inactive and KCNQ2 inh baseline -0.3.
For CCOc1ccc(CNC(=O)C(C)n2ccc3cc(S(=O)(=O)N4CCCC4)ccc32)cc1 (stereo not given) the results were KCNQ2 inh inactive and KCNQ2 inh baseline -0.86.
Screening COc1ccccc1-n1ccnc(SCC(=O)NC2CCCC2)c1=O returned KCNQ2 inh inactive and KCNQ2 inh baseline -0.64.
C=CCn1c(CCC(=O)O)ccc1-c1ccc(OC)cc1 was read as KCNQ2 inh inactive and KCNQ2 inh baseline 0.01.
`COc1ccc(/C=N/NC(=O)c2ccccc2OCc2ccccc2)c(OC)c1` gave KCNQ2 inh -6.8* and KCNQ2 inh baseline 0.06*.
Screening CCOc1ccc(C2C(C(=O)OC)=CN(C(C)c3ccccc3)C=C2C(=O)OC)cc1 (stereo not given) returned KCNQ2 inh -7.4* and KCNQ2 inh baseline 0.24*.
Cn1c(N)c(C(=O)COC(=O)c2cccc(S(=O)(=O)N3CCCCC3)c2)c(=O)n(C)c1=O was read as KCNQ2 inh inactive and KCNQ2 inh baseline 1.
For Cc1cc(C(=O)NNS(=O)(=O)c2ccccc2C(F)(F)F)nn1C(C)(C)C the results were KCNQ2 inh inactive and KCNQ2 inh baseline 1.2.
`CC1CCN(S(=O)(=O)c2ccc(C(=O)Nc3nnc(C4=COCCO4)o3)cc2)CC1` gave KCNQ2 inh inactive and KCNQ2 inh baseline 3.8.
For CCN(CC)c1ccc2cc(S(=O)(=O)c3ccc(Cl)cc3)c(=O)oc2c1 the results were KCNQ2 inh -6.2* and KCNQ2 inh baseline 3.5*.

Gathered by group, the compounds so far containing an aryl thioether with sulfur outside any ring.
CCCn1c(SCC(=O)Nc2ccc(NC(=O)CC)cc2)nc2c1c(=O)n(C)c(=O)n2C was read as KCNQ2 inh inactive and KCNQ2 inh baseline -0.73.
Screening COc1ccccc1-n1ccnc(SCC(=O)NC2CCCC2)c1=O returned KCNQ2 inh inactive and KCNQ2 inh baseline -0.64.

Going on with the list:
`COc1ccccc1NC(=S)N(Cc1cccnc1)Cc1ccco1` gave KCNQ2 inh inactive and KCNQ2 inh baseline -0.06.
For COCCCn1c(=O)c2ccccc2n(Cc2cc(C(=O)OC)ccc2OC)c1=O the results were KCNQ2 inh inactive and KCNQ2 inh baseline -1.4.
For O=C(COC(=O)/C=C/c1cccc([N+](=O)[O-])c1)NCc1ccc2c(c1)OCO2 the results were KCNQ2 inh inactive and KCNQ2 inh baseline 0.13.
For CCOP(=O)(c1ccc(N(C)C)cc1)C(O)c1ccc(C)cc1 (stereo not given) the results were KCNQ2 inh inactive and KCNQ2 inh baseline -0.16.
`CC(=O)c1cc(-c2ccccc2)n(CCC(=O)NCc2cccs2)c1C` gave KCNQ2 inh inactive and KCNQ2 inh baseline 0.1.
Screening N#Cc1ccc(-c2ccc(Cl)cc2)nc1SCC(=O)c1cccc(Cl)c1 returned KCNQ2 inh inactive and KCNQ2 inh baseline 0.03.
Screening COC(=O)c1cn(C(=O)c2cc(Br)ccc2Cl)c2ccccc12 returned KCNQ2 inh -6.1* and KCNQ2 inh baseline 1*.
Screening COc1ccc(-c2nnc(SCC(=O)N3CCCCC3)o2)c(OC)c1 returned KCNQ2 inh inactive and KCNQ2 inh baseline -0.46.
For COc1ccc(-c2csc3ncnc(N4CCN(S(=O)(=O)c5ccc(C)c(C)c5)CC4)c23)cc1 the results were KCNQ2 inh inactive and KCNQ2 inh baseline -0.71.
Screening Cc1ccc(NC(=O)CCc2nnc3ccc(N4CCC(C)CC4)nn23)nc1 returned KCNQ2 inh inactive and KCNQ2 inh baseline 0.12.
Cc1cc(C)n2nc(N)c(N=Nc3ccccc3)c2n1 was read as KCNQ2 inh inactive and KCNQ2 inh baseline 0.47.
Screening CCCCn1c(N)c(N(CCOC)C(=O)c2ccc(C)o2)c(=O)[nH]c1=O returned KCNQ2 inh inactive and KCNQ2 inh baseline 1.2.
`CCOc1ccc(Cl)cc1CSc1n[nH]c(C)n1` gave KCNQ2 inh inactive and KCNQ2 inh baseline -0.07.
`CC(C)n1nnnc1SCC(=O)NCc1cccs1` gave KCNQ2 inh inactive and KCNQ2 inh baseline -0.13.
COc1ccc(NC(=O)c2cccc(C#N)c2)cc1NS(=O)(=O)c1ccc(F)cc1 was read as KCNQ2 inh inactive and KCNQ2 inh baseline 0.39.
`O=C(/C=C/c1ccc2c(c1)OCO2)c1cccnc1` gave KCNQ2 inh inactive and KCNQ2 inh baseline 0.64.
Screening CCN(CC)CCN(Cc1cc2cc3c(cc2[nH]c1=O)OCO3)C(=S)NCCCOC returned KCNQ2 inh inactive and KCNQ2 inh baseline 0.74.
CC12CCC(C(=O)N(CSC(=S)N/N=C\c3ccccc3)C1=O)C2(C)C (stereo not given) was read as KCNQ2 inh inactive and KCNQ2 inh baseline 0.02.
Screening CC1CCCN(C(=O)c2ccc(OC3CCN(CCc4ccccc4)CC3)cc2)C1 (stereo not given) returned KCNQ2 inh inactive and KCNQ2 inh baseline -1.7.
`O=C(Nc1ccccc1-c1nc2ccccc2[nH]c1=O)c1cccs1` gave KCNQ2 inh inactive and KCNQ2 inh baseline 1.8.
For c1ccc2nc(N3CCCC3)c(N3CCCC3)nc2c1 the results were KCNQ2 inh inactive and KCNQ2 inh baseline -0.54.
Screening CCCCC(=O)Nc1ccc(C(=O)Nc2ccc(S(=O)(=O)N3CCCC3)cc2)cc1 returned KCNQ2 inh inactive and KCNQ2 inh baseline -0.6.
Screening Cc1ccc(NC(=O)CN(C)c2ccc(S(=O)(=O)N3CCN(C)CC3)cn2)cc1 returned KCNQ2 inh inactive and KCNQ2 inh baseline 0.04.
`Cc1cccc(-n2nc(C)c3c(C(=O)O)cc(-c4cccs4)nc32)c1` gave KCNQ2 inh inactive and KCNQ2 inh baseline 1.2.
CN(C)C(=O)c1ccc(OCC(F)(F)F)nc1 was read as KCNQ2 inh inactive and KCNQ2 inh baseline 0.86.
Screening O=C(CNC(=O)c1ccc(Cl)cc1Cl)OCn1nnc2ccccc2c1=O returned KCNQ2 inh inactive and KCNQ2 inh baseline -1.5.
For O=C(CCCN1C(=O)/C(=C\c2ccco2)SC1=S)Nc1ccc(O)cc1C(=O)O the results were KCNQ2 inh inactive and KCNQ2 inh baseline 3.5.
CC(C)c1cccc(C(C)C)c1NC(=O)COc1nncc2ccccc12 was read as KCNQ2 inh inactive and KCNQ2 inh baseline -0.04.
Screening NC(=O)c1nsc(C(=O)N(CC(=O)NC2CCCC2)c2ccc(F)c(Cl)c2)c1N returned KCNQ2 inh inactive and KCNQ2 inh baseline 2.1.
`O=C1c2ccccc2C(=O)N1Cc1nc(-c2ccccn2)no1` gave KCNQ2 inh inactive and KCNQ2 inh baseline 2.1.
CCOCCCn1c(C)nc2c(c1=O)c1nc3ccccc3nc1n2CCC1=CCCCC1 was read as KCNQ2 inh -5.8* and KCNQ2 inh baseline 2.1*.
`O=C(c1cc2cc(Cl)ccc2[nH]1)N1CCN(C(=O)c2ccco2)CC1` gave KCNQ2 inh inactive and KCNQ2 inh baseline 0.66.

This is a subset; the hit share may differ from the screen's.
